# From PubChem
# eIF4H inh – inhibitors of RNA binding by human eIF4H; Q15056; eIF4H fluorescence polarization binding assay; 290,000 compounds, 0.94% hits; inhibition, % at 35 µM;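 active = 50% or more with normal probe brightness, or confirmed in later tests; inconclusive = above 50% with abnormal brightness, or retests that disagree; inactive = below 50% or failed in later tests; about a fifth of its hits are not listed in these tables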;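 note: calls also rest on retests at 20 µM and on dose response follow-up; 0% = protein and probe with vehicle and 100% = probe without protein; strong numbers were not always called active; many hits fall short of the cut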
# CSC inhib – blocks cancer stem cells; cancer stem cell-like cells viability, luminescence; inhibition, % at 7.5 µM; 300,000 compounds, 1.1% hits;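 active = mean at 75% or more and at least half the replicates too; inconclusive = mean and replicates disagree; tested in HMLE shEcad cells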;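 note: 0% = median of negative and 100% = median of positive control wells; the first replicate is given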
# MT1-MMP act inh – MT1-MMP (human) activation inhibition; P50281; HT1080 RFP-PRO-GFP cells, GFP/RFP ratio fluorescence, overnight; percent of plate control window, DMSO zero; GFP/RFP ratio change, % at 20 µM; 360,000 compounds, 0.061% hits;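 active = GFP/RFP ratio change of at least 30% with cell ATP level not reduced by more than half and red fluorescence within 50% of control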; note: strong numbers were not always called active
#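 Material: RFP-PRO-GFP reporter HT1080 cells. Dosing: single-point 20 µM compound, 1% DMSO. Controls: DMSO and RFP-L50D-GFP cell wells. Timing: cells overnight before dosing, compound overnight, 37 °C, 5% CO2. Measure: GFP/RFP fluorescence ratio.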
# HIV Env fusion – inhibitors of HIV Env-mediated cell fusion. inhibition, % at 12.3 µM. HeLa-JRFL Env/CEM21 cell fusion, luciferase. 360,000 compounds, 1.1% hits;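 active = mean replicate inhibition score of at least 50 and every replicate individually at or above 50; inconclusive = only one of the two criteria met; inactive = mean below 50 and not all replicates reaching 50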;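 note: 0% = plate neutral controls and 100% = maraviroc near 300 nM; one replicate is shown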
# PABP polyA inh – PABP-poly(A) binding inhibition | PABP-poly(A) RNA binding, fluorescence polarization | inhibition, % at 35 µM | 290,000 compounds, 1% hits;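 active = 50% or more with normal probe brightness, or confirmed in later tests; inconclusive = above 50% with abnormal brightness, or retests that disagree; inactive = below 50% or failed in later tests; about a fifth of its hits are not listed in these tables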;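 note: calls also rest on retests at 20 µM and on dose response follow-up; controls were probe without protein and protein plus probe with vehicle; some compounds called inactive have numbers as strong as hits; many hits fall short of the cut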
# Target sequence (P11940 whole entry, looked up): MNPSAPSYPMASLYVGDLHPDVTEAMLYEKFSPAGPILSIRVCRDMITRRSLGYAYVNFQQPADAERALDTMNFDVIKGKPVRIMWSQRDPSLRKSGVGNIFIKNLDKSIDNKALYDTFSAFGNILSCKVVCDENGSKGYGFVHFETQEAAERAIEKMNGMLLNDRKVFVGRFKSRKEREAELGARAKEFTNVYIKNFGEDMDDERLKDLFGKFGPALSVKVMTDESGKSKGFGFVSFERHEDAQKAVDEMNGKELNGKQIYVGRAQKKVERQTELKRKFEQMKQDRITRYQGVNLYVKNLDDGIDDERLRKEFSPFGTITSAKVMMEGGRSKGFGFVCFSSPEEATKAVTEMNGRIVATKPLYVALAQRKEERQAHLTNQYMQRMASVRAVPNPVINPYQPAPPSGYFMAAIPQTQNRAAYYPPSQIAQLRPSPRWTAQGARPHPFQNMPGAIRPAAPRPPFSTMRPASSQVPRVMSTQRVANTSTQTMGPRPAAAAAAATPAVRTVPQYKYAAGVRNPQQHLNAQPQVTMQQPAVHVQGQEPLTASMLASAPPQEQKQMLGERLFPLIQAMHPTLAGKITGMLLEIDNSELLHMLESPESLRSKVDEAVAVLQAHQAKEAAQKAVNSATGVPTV
# UUG fidelity – modulators of start codon recognition fidelity in yeast. S. cerevisiae UUG-firefly luciferase reporter, luminescence/redox ratio. activity score, % at 18.7 µM. 350,000 compounds, 0.13% hits;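 active = replicate mean at a twofold rise or more, about +100% in these data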;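 note: firefly luciferase made from a UUG start codon reports start codon fidelity; reporter light over untreated wells divided by growth signal over untreated wells; some hits fall short of that in this replicate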
# Rce1 inhib – yeast Ras-converting enzyme inhibition | 290,000 compounds, 0.27% hits | calls only | Q03530 | AID 2563 | yeast membranes, quenched prenylated peptide cleavage fluorescence;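 active = fall in fluorescence gain of 50% or more versus controls, with final raw signal at or below 3038400; inconclusive = same 50% fall but final raw signal above 3038400; inactive = fall in fluorescence gain under 50%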;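 note: plate controls were neutral control wells for no effect and wells lacking membranes for full effect; tested at 10 µM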
# Target sequence (Q03530 whole entry, looked up): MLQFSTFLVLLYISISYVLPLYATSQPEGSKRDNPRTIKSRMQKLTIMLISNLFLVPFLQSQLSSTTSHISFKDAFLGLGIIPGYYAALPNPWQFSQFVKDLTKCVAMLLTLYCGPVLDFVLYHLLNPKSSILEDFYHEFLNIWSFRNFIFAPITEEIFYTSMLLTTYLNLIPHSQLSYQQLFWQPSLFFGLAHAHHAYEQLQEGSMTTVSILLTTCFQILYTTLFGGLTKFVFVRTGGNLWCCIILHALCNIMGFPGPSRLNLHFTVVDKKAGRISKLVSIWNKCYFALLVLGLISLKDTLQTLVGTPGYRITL
# eIF4H inh retest – further read-out of eIF4H inh, marked with its call; inhibition, %; compound at 20 µM; confirmation average;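 mean of two retest wells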
# PABP polyA inh retest – recorded beside PABP polyA inh, whose call it bears; inhibition, %; compound at 20 µM; confirmation repeats;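 mean of two retest wells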
# MT1-MMP act inh RFP – recorded beside MT1-MMP act inh, whose call it bears; RFP signal change, %; measured here: RFP expression control read;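 0 = vehicle wells; hits needed this value within 50% of zero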
# The depositor's hits bear a star; i = inactive; ? = inconclusive; nt = not tested or not shown.
SMILES,eIF4H inh,CSC inhib,MT1-MMP act inh,MT1-MMP act inh RFP,HIV Env fusion,PABP polyA inh,UUG fidelity,Rce1 inhib,others
CC1=C(C(=O)OCC2CCCO2)C(c2ccc(C)cc2)C2=C(CC(C)(C)CC2=O)N1 (configuration not stated),4,1,-5,-2,-5,2,nt,i,
COc1ccc(S(=O)(=O)N(CC(=O)Nc2ccc3c(c2)OCO3)c2ccccc2OC)cc1,-5,-11,0,-2,nt,-2,-21,i,
C[C@@H]1Cn2cnc(C(=O)NCC(=O)OC(C)(C)C)c2C(=O)N1,nt,nt,2,4,25,nt,-13,nt,
COc1ccccc1N=C1NC(=O)/C(=C/c2ccc(N(C)C)cc2)S1,?,53,-171,-9,-45,?,-12,i,
CC(=O)Nc1ccc(NC(=O)CSc2nnc(-c3cccs3)n2N)cc1,nt,-7,nt,nt,?,nt,-9,i,
Cc1onc(-c2c(Cl)cccc2Cl)c1C(=O)NCc1ccccn1,8,-8,0,6,0,18,-4,i,
Cc1cccc(C)c1NC(=O)CSc1nnc(-c2ccco2)c(-c2ccco2)n1,100*,12,-19,-2,nt,80*,-20,i,eIF4H inh retest=101*;PABP polyA inh retest=106*
CCC(=O)c1ccc(OCC(=O)Nc2ccccc2C(=O)NC2CC2)cc1,nt,nt,-2,-3,-1,nt,-12,nt,
CCOc1cc(-c2c(C#N)c(=O)[nH]c3c2c(C)nn3-c2ccc(F)cc2)ccc1O,-6,1,1,-3,57*,26,0,i,
Nc1c(/C=C2/C=CC(=O)C(O)=C2)c(=O)nc2sc(CC(=O)N3CCCCC3)nn12,69*,7,-60,9,0,54*,-20,i,
CCCCOC(=O)Nc1ccc2c(C)cc(=O)oc2c1,0,1,-3,-1,-126,-9,-13,i,
O=C(CN1C(=O)NC2(CCCc3ccccc32)C1=O)NC1CCCCC1 (configuration not stated),nt,1,1,1,nt,nt,7,i,
CCS(=O)(=O)N1CCCC(C(=O)NCCCOC)C1 (configuration not stated),-3,-16,3,5,nt,-4,-10,i,
COc1ccc(CCNC(=O)C(=O)c2cn(CC(=O)N3CCOCC3)c3ccccc23)cc1,-2,-2,2,7,3,3,-1,i,
C=CCNc1nc(C(=O)OCC(=O)c2cccc(Br)c2)cs1,nt,nt,0,4,-8,nt,-14,nt,
O=c1[nH]c(-c2ccc(Cl)cc2)nc(=S)[nH]1,-8,-12,3,2,11,-3,nt,i,
Cc1cc(N2C(=O)C(O)=C(C(=O)c3cc4ccccc4o3)C2c2cccs2)no1 (configuration not stated),46,-19,-15,10,-3,31,-23,i,
CCOC(=O)C1(CC2CCCCO2)CCN(Cc2cn[nH]c2-c2cccc(F)c2)CC1 (configuration not stated),-2,-27,3,0,17,-3,-15,i,
Cc1ccsc1-c1cc2nc(Nc3ccc(F)cc3)n(C)c(=O)c2s1,nt,nt,-5,0,-34,nt,-25,nt,
O=C(Nc1cc(S(=O)(=O)N2CCOCC2)ccc1N1CCCC1)c1cccnc1Cl,-4,-10,2,3,-5,-2,-14,i,
O=C1CC(NNC(=O)c2ccccc2)C(=O)N1 (configuration not stated),4,-1,1,5,-54,6,-25,i,
CC(C)C(NC(=O)c1ccc(C(C)(C)C)cc1)C(=O)OCC(=O)NC(=O)Cc1ccccc1 (configuration not stated),-1,-10,5,8,-10,8,-15,i,
COc1ccc(-c2ccc3c(c2)O/C(=C\c2ccsc2)C3=O)cn1,nt,10,3,-1,-11,nt,-6,nt,
Cc1nn(Cc2ccccc2)c2sc(C(=O)NCc3cccnc3)cc12,-8,nt,4,-7,6,-9,-56,nt,
CN(C)C(=O)c1ccc(Cc2cn(C)c3ccccc23)nc1,nt,nt,1,3,13,nt,-7,nt,
O=C(N1CCN(S(=O)(=O)c2ccc(Cl)cc2)CC1)n1ccnc1,nt,4,0,3,nt,nt,-5,nt,
FC(F)(F)c1cccc(Cn2nnnc2-c2cc(Cl)cc(Cl)c2)c1,-17,-1,0,-3,nt,-11,-5,i,
O=C(Nc1cc(S(=O)(=O)N2CCOCC2)ccc1Cl)C1CCC1,nt,12,-3,1,41,nt,-2,i,
COc1ccc(C(C)=O)cc1CN1C(=O)NC(c2ccccc2)(c2ccccc2)C1=O,-3,-1,-2,0,-7,7,nt,i,
CN1CCN(S(=O)(=O)c2ccc(Oc3ccc(F)cc3Br)nc2)CC1,-14,-5,4,5,5,-5,-12,i,
Cc1ccc(Nc2nnc(-c3ccc(N4CCOCC4)c([N+](=O)[O-])c3)c3ccccc23)cc1,-13,48,8,-4,?,-9,nt,i,
CCOC(=O)CSc1nnc(NCC(=O)OC(C)C)c(=O)[nH]1,-4,-2,2,7,nt,-5,-8,i,
COC(=O)C1=NN(C(=O)c2cccc(Cl)c2)C(O)(C(C)(C)C)C1 (configuration not stated),3,12,7,14,nt,21,-9,nt,
C=CCn1c(N2CCCC2)nc2c1c(=O)n(C)c(=O)n2C,-3,-7,3,1,-12,-5,-10,i,
Cc1nc2sc(C(N)=O)c(N)c2c(C)c1CC(=O)c1ccccc1,11,-16,-8,-8,34,9,-16,i,
Cn1nccc1C(=O)N/N=C/c1ccccc1[N+](=O)[O-],-10,-2,2,0,-16,-4,-15,i,

# Reprinted at random: 3 entries already listed, in no set order.
SMILES,eIF4H inh,CSC inhib,MT1-MMP act inh,MT1-MMP act inh RFP,HIV Env fusion,PABP polyA inh,UUG fidelity,Rce1 inhib,others
CN(C)C(=O)c1ccc(Cc2cn(C)c3ccccc23)nc1,nt,nt,1,3,13,nt,-7,nt,
COC(=O)C1=NN(C(=O)c2cccc(Cl)c2)C(O)(C(C)(C)C)C1 (configuration not stated),3,12,7,14,nt,21,-9,nt,
CCOC(=O)CSc1nnc(NCC(=O)OC(C)C)c(=O)[nH]1,-4,-2,2,7,nt,-5,-8,i,

# Next section
SMILES,eIF4H inh,CSC inhib,MT1-MMP act inh,MT1-MMP act inh RFP,HIV Env fusion,PABP polyA inh,UUG fidelity,Rce1 inhib,others
O=C(C1CCCN(C2CC(=O)N(c3ccc(F)cc3)C2=O)C1)N1CCCC1 (configuration not stated),4,-18,-2,2,-10,2,-17,i,
CCCC(=O)N/C(N)=N/c1nc2ccccc2o1,3,-3,2,-1,-98,17,nt,i,
COC(=O)c1ccc(NC(CC(C)C)C(=O)OC)c([N+](=O)[O-])c1 (configuration not stated),2,-11,-2,-2,13,0,nt,i,
CC(C)(C)OC(=O)N1CCC(c2c(C(=O)NC3CC3)cnn2-c2ccc(Cl)cc2)CC1,-7,-3,0,2,-35,-3,12,i,
O=C(Nc1nncs1)c1cccc(S(=O)(=O)N2CCCCC2)c1,0,-1,-2,4,-54,-10,-5,i,
CC(=O)NCCc1ccc(C(=O)Cn2cnc3ccccc3c2=O)cc1,5,-7,-1,1,0,0,-14,i,
CCCOP(=O)(c1ccc(N(C)C)cc1)C(O)c1ccncc1 (configuration not stated),4,-11,5,7,-74,9,-2,i,
CC(C)=CCc1c(O)ccc2c1OC(c1ccc(O)c(O)c1)CC2=O (configuration not stated),9,45,-21,-11,nt,7,-14,i,
CCCc1nnc(SCC(=O)NC2CC2)n1CC,10,nt,1,7,2,-9,-14,i,
CCOC(=O)c1ccc(NC(=O)C(=O)NCc2ccc(/C=C(/C#N)C(=O)NCCOC)o2)cc1,-4,-11,-2,-4,9,12,nt,i,
CS(=O)(=O)N(CC(=O)N1CCN(c2ccccc2)CC1)c1cccc(Br)c1,5,-19,2,3,-29,42,-14,i,
Cc1c(NC(=O)C(C)OC(=O)/C=C/c2ccco2)c(=O)n(-c2ccccc2)n1C (configuration not stated),78*,nt,0,0,-4,2.8*,4,i,eIF4H inh retest=106*;PABP polyA inh retest=106*
CCC(C)C(=O)NCCc1ccc(S(N)(=O)=O)cc1 (configuration not stated),-8,-24,4,4,0,-2,nt,i,
COc1cccc(C(=O)NN2CC(O)=C(c3nc4ccccc4s3)C2=N)c1,-1,-7,4,2,-26,-16,nt,i,
Cc1cccc(OCc2nnc(SC(C)C(=O)O)n2-c2ccccc2)c1 (configuration not stated),-8,-8,-4,-3,-1,-2,-1,i,
COc1ccc(C(=O)NC2CCN(C(=S)Nc3ccc(C)cc3)CC2)cc1,3,-2,-5,-1,-19,2,nt,i,
Cc1ccc(/C=C\c2nccc3c2[nH]c2ccccc23)cc1,-11,83*,-22,-12,-30,-5,-5,i,
COc1cccc(CN(CC2CCCO2)C(=O)c2cc3ccccc3oc2=O)c1 (configuration not stated),-13,-17,2,4,-1,8,nt,i,
O=C(O)c1ccccc1C(=O)N1N=C2/C(=C/c3cccc([N+](=O)[O-])c3)CCCC2C1c1cccc([N+](=O)[O-])c1 (configuration not stated),24,1,3,-2,-6,-20,nt,i,
CC(O)c1nc2cc([N+](=O)[O-])ccc2n1Cc1ccccc1 (configuration not stated),-4,-32,0,-6,6,-6,-18,i,
Fc1cccc(F)c1CN1CCN(c2ncccn2)CC1,-7,-12,0,6,12,15,-2,i,
COC(=O)c1ccc(NC(=O)c2ccc(NS(=O)(=O)c3cccc4cccnc34)cc2)cc1,-4,8,2,-1,nt,6,-9,i,
Cc1ccc(N2C(=O)C3C(C2=O)C2C=CC3C23CC3)c([N+](=O)[O-])c1 (configuration not stated),-19,-5,0,0,-5,-10,nt,i,
O=S(=O)(c1ccccc1Cl)N1CCCC(c2nc(-c3cccnc3)no2)C1 (configuration not stated),-2,-5,3,0,?,-6,-9,i,
COc1ccc(Cl)cc1NC(=O)CN1CCC(n2nnc3cc(F)ccc32)CC1,-7,-5,2,5,27,-2,-19,nt,
COC(=O)C1CCN(C(=O)CSc2nc3ccc(OC)cc3[nH]2)CC1,-6,1,2,4,1,1,nt,i,
O=C1c2ccccc2-c2n[nH]c3cccc1c23,nt,nt,-19,-7,-10,nt,-25,nt,
CCOC(=O)c1cc2nc(-c3ccco3)cc(C(F)(F)F)n2n1,17,-7,0,3,nt,-14,-14,i,
CC(NC(=O)C(CC(=O)OC(C)(C)C)NC(=O)OC(C)(C)C)C(N)=O (configuration not stated),9,8,0,2,-37,-1,-10,i,
CCCCCCc1cc2cc(C(=O)Nc3ccc(OC)cc3)c(=O)oc2cc1O,-7,54,-12,-17,1,12,nt,i,
COc1ccccc1C(=O)Nc1ccc2c(c1)CN(Cc1cnc(C)s1)CC2,4,5,-5,-6,2,-2,-5,i,
CSCCC1(C(=O)O)NC(c2ccccc2O)C2C(=O)N(C(C)C)C(=O)C21 (configuration not stated),-10,-12,0,5,-14,10,-15,i,
O=C(c1sc2ccccc2c1Cl)N1CCN(CCc2ccccn2)CC1,-15,-3,0,1,4,-3,-15,i,
COC(CNC(=O)C1CC(=O)N(CCc2ccc(C)cc2)C1)OC (configuration not stated),-1,-17,4,2,-1,8,-10,i,
Cc1cc(NS(=O)(=O)c2ccc(NC(=O)c3oc4ccccc4c3C)cc2)no1,-18,-13,3,3,57*,6,-7,i,
O=C(NCCCN1CCOCC1)C(=O)NCC1OCCCN1S(=O)(=O)c1cc(F)ccc1F (configuration not stated),-8,4,-1,4,nt,-10,-8,i,
CC1(C)CC(=O)C(C2=NC3(CCCCC3)Cc3ccccc32)=C(O)C1,-9,-3,2,4,-5,-2,-4,i,
COc1ccc(C2C(C(=O)c3ccco3)=C(O)C(=O)N2CCOCCO)cc1OC (configuration not stated),8,11,1,0,-30,15,-14,i,

# No enrichment for hits; 3% or so of the library scored in one or more.
